Assay outcomes (PubChem)
Yeast UUG start – modulators of yeast start codon fidelity, primary screen, whole organism, S. cerevisiae, single point, plate reader; activity score, % at 18.7 µM; S. cerevisiae UUG-firefly luciferase reporter, luminescence/redox ratio; 350,000 tested, 0.13% active;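 active = replicate mean at a twofold rise or more, about +100% in these data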;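 also: firefly luciferase made from a UUG start codon reports start codon fidelity; reporter light over untreated wells divided by growth signal over untreated wells; some hits fall short of that in this replicate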
eIF4H inh – human eIF4H binding inhibitors, primary screen, translation initiation inhibitor project, biochemical, uHTS, fluorescence polarization | Eukaryotic translation initiation factor 4H (Homo sapiens), Q15056 | eIF4H fluorescence polarization binding assay | inhibition, % at 35 µM | 290,000 tested, 0.94% active | AID 2012, 2009;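 active = 50% or more with normal probe brightness, or confirmed in later tests; inconclusive = above 50% with abnormal brightness, or retests that disagree; inactive = below 50% or failed in later tests; about a fifth of its hits are not listed in these tables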;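 also: calls also rest on retests at 20 µM and on dose response follow-up; 0% = protein and probe with vehicle and 100% = probe without protein; strong numbers were not always called active; many hits fall short of the cut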
MT1-MMP act inh – blockers of MT1-MMP proenzyme processing, primary screen, HT1080 RFP-PRO-GFP cells, GFP/RFP fluorescence. Matrix metalloproteinase-14 (Homo sapiens), P50281. GFP/RFP ratio fluorescence, overnight; percent of plate control window, DMSO zero. GFP/RFP ratio change, % at 20 µM. 360,000 tested, 0.061% active;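 active = GFP/RFP ratio change of at least 30% with cell ATP level not reduced by more than half and red fluorescence within 50% of control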; also: strong numbers were not always called active
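Assay system: HT1080 cells carrying an RFP-PRO-GFP reporter | Dosing: Single dose of 20 µM compound, 1% DMSO final | Incubation: Cells overnight before dosing, compound overnight, 37 °C, 5% CO2 | Evaluation: GFP/RFP fluorescence ratio | Control set: DMSO and RFP-L50D-GFP cell wells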
Env fusion inh – inhibitors of HIV-1 Env-driven cell-cell fusion, primary screen, HeLa-JRFL effector, CEM21 target cells, luciferase | 360,000 tested, 1.1% active | inhibition, % at 12.3 µM;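 active = mean replicate inhibition score of at least 50 and every replicate individually at or above 50; inconclusive = only one of the two criteria met; inactive = mean below 50 and not all replicates reaching 50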;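 also: 0% = plate neutral controls and 100% = maraviroc near 300 nM; one replicate is shown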
Rce1 inh – yeast Rce1p protease inhibitors, primary screen, biochemical, fluorescence, cell-free homogeneous | yeast membranes, quenched prenylated peptide cleavage fluorescence | calls only | 290,000 tested, 0.27% active;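 active = fall in fluorescence gain of 50% or more versus controls, with final raw signal at or below 3038400; inconclusive = same 50% fall but final raw signal above 3038400; inactive = fall in fluorescence gain under 50%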;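 also: plate controls were neutral control wells for no effect and wells lacking membranes for full effect; tested at 10 µM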
CSC inhib – cancer stem cell viability inhibitors, primary screen, luminescence; inhibition, % at 7.5 µM; 300,000 tested, 1.1% active; cancer stem cell-like cells viability;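 active = mean at 75% or more and at least half the replicates too; inconclusive = mean and replicates disagree; tested in HMLE shEcad cells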;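 also: 0% = median of negative and 100% = median of positive control wells; the first replicate is given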
PABP polyA inh – PABP poly(A) RNA binding inhibitors, primary screen, biochemical, fluorescence polarization, uHTS; Polyadenylate-binding protein 1 (Homo sapiens), P11940; inhibition, % at 35 µM; 290,000 tested, 1% active;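 active = 50% or more with normal probe brightness, or confirmed in later tests; inconclusive = above 50% with abnormal brightness, or retests that disagree; inactive = below 50% or failed in later tests; about a fifth of its hits are not listed in these tables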;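 also: calls also rest on retests at 20 µM and on dose response follow-up; controls were probe without protein and protein plus probe with vehicle; some compounds called inactive have numbers as strong as hits; many hits fall short of the cut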
Target sequence (P11940 whole entry, looked up): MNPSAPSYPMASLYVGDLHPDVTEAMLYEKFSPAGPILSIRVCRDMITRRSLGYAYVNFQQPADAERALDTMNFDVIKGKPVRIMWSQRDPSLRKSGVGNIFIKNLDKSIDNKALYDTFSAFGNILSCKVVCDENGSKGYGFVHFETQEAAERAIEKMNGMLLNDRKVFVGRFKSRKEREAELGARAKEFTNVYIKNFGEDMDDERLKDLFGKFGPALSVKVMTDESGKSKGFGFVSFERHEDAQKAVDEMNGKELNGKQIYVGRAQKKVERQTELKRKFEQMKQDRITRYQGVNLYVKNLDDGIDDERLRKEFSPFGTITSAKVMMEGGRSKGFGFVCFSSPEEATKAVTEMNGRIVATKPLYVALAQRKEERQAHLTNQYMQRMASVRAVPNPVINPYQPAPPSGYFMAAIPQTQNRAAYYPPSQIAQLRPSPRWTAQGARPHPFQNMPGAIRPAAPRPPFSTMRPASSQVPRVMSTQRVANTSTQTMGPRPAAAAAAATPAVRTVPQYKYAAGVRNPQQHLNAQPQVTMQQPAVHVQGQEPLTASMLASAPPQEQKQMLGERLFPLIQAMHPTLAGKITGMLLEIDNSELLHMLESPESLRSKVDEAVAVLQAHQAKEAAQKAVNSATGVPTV
eIF4H inh retest – second read-out of eIF4H inh, no call of its own (marks repeat the call); inhibition, %; compound at 20 µM; confirmation average;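 mean of two retest wells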
PABP polyA inh retest – recorded beside PABP polyA inh, whose call it bears; inhibition, %; compound at 20 µM; confirmation repeats;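 mean of two retest wells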
MT1-MMP act inh RFP – also measured in MT1-MMP act inh; calls as there; RFP signal change, %; measured here: RFP expression control read;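 0 = vehicle wells; hits needed this value within 50% of zero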
Starred values were filed as active, the others as inactive; i = inactive; ? = inconclusive; nt = not tested or not shown. Some of the compounds tested; rates above refer to the full screens.

SMILES	Yeast UUG start	eIF4H inh	MT1-MMP act inh	MT1-MMP act inh RFP	Env fusion inh	Rce1 inh	CSC inhib	PABP polyA inh	others
O=C(CCCCCN1C(=O)CCC1=O)Nc1ncn[nH]1	-19	-2	-2	3	nt	i	-13	4
CCOC(=O)C(CC)n1cnc2c(cnn2-c2ccc(Cl)cc2)c1=O (configuration not stated)	-17	-3	1	-9	nt	i	-1	-3
Cn1c(SCC(=O)N2CCN(S(=O)(=O)c3ccccc3)CC2)nc2ccccc21	nt	2	-4	-1	nt	i	-13	20
O=C(c1cn(CC(=O)N2CCCC2)c2ccccc12)C1CCCCC1	nt	2	2	12	-113	i	-16	3
CC12CCC(C(=O)NCCN3CCCCC3)(CC1=O)C2(C)C (configuration not stated)	nt	-14	2	2	nt	i	-1	8
Oc1c(Cl)cc(Cl)cc1C=Nc1ccc(Br)cc1	0	11	-7	-6	nt	i	nt	10
CCOC(=O)N1CCN(CC(=O)Nc2ccc([N+](=O)[O-])cc2C(=O)Nc2ccccc2F)CC1	nt	-6	-10	-8	-16	i	17	6
COCCCn1c(SCC(=O)NC2CCCC2)nnc1-c1cccs1	nt	4	3	4	3	i	2	-1
COc1ccccc1N1CCN(C(=O)CN(c2cc(C)cc(C)c2)S(C)(=O)=O)CC1	nt	5	4	-1	nt	i	1	-9
Cc1ccc(C(=O)N2CCc3ccccc32)cc1C	-16	nt	-2	-5	-37	nt	nt	nt
COc1ccc(-n2c(Cc3cccn3C)nnc2SCC(=O)Nc2ccccc2C)cc1	-9	-8	2	-1	-13	i	-3	-8
Brc1nc(-c2ccccc2)nc(-c2ccccc2)c1Br	-3	nt	-4	-3	3	i	51	nt
COc1ccc2[nH]c3c(NCCN4CCCCC4)ncnc3c2c1	-16	6	18	3	nt	i	8	-3
CC(=O)c1ccc(S(=O)(=O)Nc2ccc(S(=O)(=O)N3CCCCC3)cc2)cc1	11	nt	3	5	22	nt	-10	nt
O=C(Nc1ccccn1)c1ccc(C(=O)c2ccccc2)cc1	-34	nt	4	-5	-59	i	14	nt
Cc1ccc(OCCn2ncc3ccccc3c2=O)c(C)c1	-13	-9	4	1	-11	i	-4	0
Cc1ccc(OCn2c(=O)sc3ccccc32)cc1	-2	4	-3	1	nt	i	8	-6
COc1ccc(NC(=O)NC2CCCCCCC2)cc1OC	35	-2	1	1	-41	i	0	9
Cc1ccc(NC(=O)CC(NC(=O)c2ccccc2Cl)c2ccccc2)nc1 (configuration not stated)	-11	nt	-1	-7	-3	nt	6	nt
CCN(Cc1ccccc1)c1cc2c(c3c1ccn3C)C1CCC2O1 (configuration not stated)	0	nt	0	0	5	nt	nt	nt
CCOc1cccc2sc(=NC(=O)CCS(=O)(=O)c3ccc(F)cc3)n(C)c12	-12	nt	8	-14	27	i	11	nt
Cc1ccc(CNC(=O)c2ccc(CS(=O)Cc3cccc(Cl)c3)o2)cc1 (configuration not stated)	-10	-1	5	4	7	i	29	7
Cc1ccc([N+](=O)[O-])cc1S(=O)(=O)Nc1cccc(S(=O)(=O)Nc2ccccc2C(=O)O)c1	-3	nt	-1	3	-4	nt	-8	nt
CC(C)Oc1ccc(C(=O)NNC(=O)c2ccccc2C(=O)O)cc1	nt	3	-4	1	-14	i	1	16
C=CCn1c(SC(CCO)C(=O)NCc2ccco2)nc2sc3c(c2c1=O)CCC3 (configuration not stated)	44	6	-4	-2	-20	i	-5	4
COc1cc(/C=N/N=C2/NC(=O)C(Cc3ccccc3)S2)ccc1O (configuration not stated)	12	-4	3	-2	-4	i	18	-1
CC(Oc1ccc(Cl)cc1)C(=O)N(C)CC(=O)Nc1ccc(N2CCOCC2)cc1 (configuration not stated)	-16	4	-1	-2	-4	i	-8	30
CC1CN(C(=O)c2cc3c(=O)n4ccccc4nc3n2C)CC(C)O1 (configuration not stated)	-17	7	1	3	2	?	-13	-5
CCC(C)c1ccc(NC(=S)NCc2ccccn2)cc1 (configuration not stated)	-27	2	2	-4	-24	i	3	0
CC(=O)Cn1ncc(N2CCCCC2)c(Cl)c1=O	nt	-2	3	7	-16	i	-16	-2
Cn1nc(C(C)(C)C)c(NC(=O)c2ccc(F)cc2)c1C(C)(C)C	nt	-6	-4	-7	1	i	-1	-2
COCCC(=O)N1CCC(Oc2ccc(C(=O)NCCC3=CCCCC3)cc2)CC1	-5	2	3	-7	-28	i	40	6
O=c1[nH]n(-c2ccccc2Cl)c(=O)c2ccccc12	-19	-20	-1	2	-10	i	-9	-8
Cc1c(NC(=O)OC(C)C)sc(=S)n1C	-13	-6	8	8	-14	i	-9	-10
CC(C)N(C(=O)Cn1c(-c2ccccc2Cl)nc2ccccc21)c1ccccc1	nt	0	0	5	16	i	-6	9
COc1ccc(C(=O)N2CCN(c3ccccc3)CC2)cc1S(=O)(=O)N1CCOCC1	11	5	1	2	0	i	-13	-1
O=C(NNC(=O)c1c(O)c2ccccc2[nH]c1=O)c1ccccc1	-19	-17	-1	1	12	nt	-8	18
COc1ccc(OCc2cc(C(=O)N3CCN(CC4CC4)CC3)no2)c(Cl)c1	-14	-4	0	2	-32	i	-20	3
CCSC1=N/C(=C\c2ccc(-c3ccccc3[N+](=O)[O-])o2)C(=O)S1	nt	21	-20	8	nt	i	-15	36
CCOC(=O)C1(C)CCCN(C(=O)c2cc(C)on2)C1 (configuration not stated)	-6	nt	3	4	4	nt	nt	nt
FC(F)(F)c1cc(CCN2CCNC[C@H]2Cc2cccc3ccccc23)cc(C(F)(F)F)c1	-3	nt	-2	2	11	i	?	nt
Cc1nn(CCCC(=O)Nc2cc(Oc3ccccc3)cc([N+](=O)[O-])c2)c(C)c1[N+](=O)[O-]	-14	-6	-4	-16	28	i	24	-12
CCC1CCC(NC2CCCCNC2=O)CC1 (configuration not stated)	3	6	-1	2	-33	i	1	4
Cc1ccc(CNC(=O)c2ccc(CN3CCOCC3)cc2)cc1	-19	-4	-1	-1	-16	i	-25	30
CC(/C=N/NC(=O)c1nnn(-c2nonc2N)c1C(C)C)=C\c1ccco1	-9	6	-4	0	8	i	16	7
CC(NC(=O)CSc1nnc(-c2cccnc2)n1N)c1ccccc1 (configuration not stated)	nt	5	2	0	-11	i	-8	2
CC1=CC(=Nc2c(C)n(C)n(-c3ccccc3)c2=O)C=C(C)C1=O	5	-7	2	1	2	i	12	58	eIF4H inh retest=-11;PABP polyA inh retest=-7
CC(/C=N/N1CCN(c2ccccc2)CC1)=C\c1ccccc1	-7	-8	-1	6	nt	i	4	-8
Cc1c(C(=O)NCc2cccc(C(F)(F)F)c2)sc(=O)n1Cc1ccc(F)cc1	-15	nt	5	-4	-79	nt	nt	nt
COc1ccc(S(=O)(=O)N(CC(=O)NN=C2CCN(C)CC2)c2ccc(C)cc2)cc1OC	-15	-5	0	3	-17	nt	-8	-4
Nc1ccc2nc(-c3ccc(N)c(Cl)c3)[nH]c2c1	nt	29	8	-6	nt	i	15	4
Cc1cccc(NC(=O)c2ccc(NCC3CCCO3)c([N+](=O)[O-])c2)n1 (configuration not stated)	nt	-10	11	-5	-28	i	2	-8
COc1cccc(CC(=O)OCC(=O)NC(=O)c2ccc(OC(F)F)cc2)c1	-4	nt	0	-2	11	i	-9	nt
Cc1ccc(NC(=O)N(C)c2ccccc2)cc1	-18	-6	4	1	-16	i	-10	-5
CC(=O)c1ccc(OCCNS(=O)(=O)c2ccc(-n3cnnn3)c(C)c2)cc1	-16	0	4	-13	-3	i	-2	0
Cc1cc(C)c(OCC(=O)Nc2ccccn2)c([N+](=O)[O-])c1	-13	1	4	4	-1	i	-12	8
CCOC(=O)c1c(NC(N)=O)nc2n1CCC2	-11	1	1	4	25	i	-17	-5
Cc1ccc(C2=NCN(c3ccc(C(=O)O)cc3)C(=S)N2)cc1	nt	4	nt	nt	nt	i	1	-15
Cc1ccc2nc(NC(=O)CSc3nc(=O)n(CCN(C)C)c4c3CCCC4)sc2c1	-2	nt	0	2	-26	i	-2	nt
CN(C)S(=O)(=O)c1ccc(Cl)c(NC(=O)CN2C(=O)NC3(CCCC3)C2=O)c1	-26	-3	0	0	8	i	-8	9
(cont.)
SMILES	Yeast UUG start	eIF4H inh	MT1-MMP act inh	MT1-MMP act inh RFP	Env fusion inh	Rce1 inh	CSC inhib	PABP polyA inh	others
COc1ccc(CCN2CC34C=CC(O3)C(C(=O)NCc3ccccc3)C4C2=O)cc1OC (configuration not stated)	6	4	-2	4	3	i	-14	-3
CCCCCc1c(O)c2ccccc2[nH]c1=O	-14	2	-1	7	-7	i	16	3
Cc1ccc(O)c(C(=O)/C=C/c2ccc3c(c2)OCCCO3)c1	nt	2	-9	-9	-76	i	57	4
CCCn1c(SCC(=O)NCCc2ccc(Cl)cc2Cl)n[nH]c1=O	-12	-2	0	4	-42	i	-14	-3
CC[C@H]1c2[nH]c3ccccc3c2C[C@@H]2C(=O)N(c3ccc(F)cc3)C(=O)N21	-4	nt	1	-13	nt	i	-15	nt
COc1cc(/C=N/Nc2ccc3ccccc3c2)ccc1OC(=O)c1ccco1	-12	6	-7	1	-4	i	nt	-28
CCN(CC(=O)Nc1ccccc1C(F)(F)F)C(=O)CN1C(=O)NC2(CCCC2)C1=O	nt	nt	7	5	18	i	nt	nt
Cc1ccc(N2NC(C)(c3cccs3)NC2=S)cc1 (configuration not stated)	nt	-2	-4	4	-10	i	-2	-6
Clc1ccc(N/N=C/c2cccs2)nn1	nt	1	2	5	-25	i	3	8
Cc1ccc(S(=O)(=O)NCC(=O)OCC(=O)NC(=O)c2cccn2C)cc1	-3	3	-1	3	nt	i	9	14
Cc1nc2c(-c3ccc(F)cc3)c(C)nn2c(C)c1CCC(=O)Nc1ccccc1	-1	-5	6	-3	63*	i	-2	-6
Cc1ccc(CNC(=O)C2CC(=O)N(c3ccc(OCC(=O)N4CCCC4)cc3)C2)cc1 (configuration not stated)	nt	1	-2	3	nt	i	0	31
O=C(Nc1nc(-c2ccccn2)cs1)c1cc2ccccc2o1	-69	21	-9	-1	23	i	47	3
Cc1ccc(NC(=O)c2nc[nH]c2C(=O)NCCCCNC(=O)c2[nH]cnc2C(=O)Nc2ccc(C)cc2)cc1	-9	nt	-6	7	50	nt	nt	nt
C[C@@H]1NC(=O)c2cc([N+](=O)[O-])cc(I)c2NCCCC[C@@H](C(N)=O)NC(=O)[C@H](CC(N)=O)NC1=O	12	1	nt	nt	nt	nt	4	9
CCC(=O)N1CCCC(C)(C(=O)Nc2ccc3scnc3c2)C1 (configuration not stated)	-5	nt	5	8	-1	nt	nt	nt
CC(C(=O)NCC1CCCCC1)N1CCc2ccccc2C1 (configuration not stated)	nt	6	-3	1	13	i	15	-8
Cn1c(CCN2CCOCC2)nc2cc(NC(=O)c3cccs3)ccc21	nt	0	3	2	17	i	5	-10
O=c1oc(/C=C/c2ccccc2)nc2sc3c(c12)CCC3	-10	-8	5	12	-85	i	38	-4
